# High-throughput results as filed in PubChem.
# CtBP-E1A inh = inhibitors of CtBP/E1A interaction | AlphaScreen GST-E1A/His-CtBP binding, 1536-well; hits give low values; control for the full effect not named in the record | activity change, % (concentration not given with the values) | 340,000 compounds, 0.49% hits; in the data active means activity change below about -65%; inconclusive means about -30% to -65%; inactive means above about -30%; also: % is scaled to controls: 0 for no effect and ±100 for the full control effect
#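 Homogeneous bead-based format: GST-tagged E1A captured on glutathione donor beads, His-tagged CtBP on nickel acceptor beads; compounds precede bead addition by 2 h at 37 °C.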
# D2 PAM = human D2 receptor positive allosteric modulation. P14416. DiscoveRx D2 beta-arrestin cells, luminescence, 90 min; 100% = 57 uM dopamine signal. potentiation, % (concentration not given with the values). 360,000 compounds, 0.23% hits. AID 624464; active = potentiation of 50% or more; inconclusive = 30% to 50%; inactive = 30% or less;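 also: tested on top of an EC20 dose of dopamine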
# Target sequence (P14416 whole entry, looked up): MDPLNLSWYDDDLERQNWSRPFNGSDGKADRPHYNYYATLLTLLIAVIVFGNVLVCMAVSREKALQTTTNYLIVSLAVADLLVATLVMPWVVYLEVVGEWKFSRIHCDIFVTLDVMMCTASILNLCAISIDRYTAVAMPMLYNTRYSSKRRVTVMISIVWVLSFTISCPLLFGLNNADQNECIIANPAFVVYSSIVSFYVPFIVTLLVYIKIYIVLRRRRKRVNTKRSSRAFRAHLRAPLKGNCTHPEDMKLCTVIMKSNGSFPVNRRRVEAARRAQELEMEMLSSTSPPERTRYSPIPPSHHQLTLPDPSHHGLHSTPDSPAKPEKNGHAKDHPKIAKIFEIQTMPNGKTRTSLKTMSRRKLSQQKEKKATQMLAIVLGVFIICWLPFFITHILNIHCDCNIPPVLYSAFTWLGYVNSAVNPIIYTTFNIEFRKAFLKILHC
#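 PathHunter beta-arrestin assay in DiscoveRx D2 cells. Compounds were added with an EC20 of dopamine (50 nM final) for 90 min at 37 deg C. Luminescence was read 1 h after detection reagent, with 57 uM dopamine as the EC100 control.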
# TRPV1 potentiator = potentiators of human vanilloid receptor 1 (TRPV1); Q8NER1; TRPV1-expressing cells, Fluo-8 calcium influx, capsaicin EC20 potentiation; host cell line not named in the record; control for the full effect not named in the record; potentiation, % at 8.33 µM; 320,000 compounds, 0.02% hits; active means potentiation above 80%; inconclusive means 30% to 80%; inactive means below 30%; also: 0% is about no effect
#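 Fluo-8 calcium influx in TRPV1-expressing cells, kinetic read (ex 480/em 520 nm). Compound added and read 3 min for agonist activity, followed by capsaicin at EC20 final and 2 min further read for enhancement.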
# TRPML1 inh = blocks the human TRPML1 channel. TRPML1-inducible cells, Ca2+ dye fluorescence, FDSS; hits give low values; inhibition of EC80 agonist-evoked calcium signal. activity change, negative = inhibition, % (concentration not given with the values). 390,000 compounds, 0.02% hits. AID 624415; in the data active means activity change below about -50%; inconclusive means about -30% to -50%; inactive means above about -30%;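 also: stimulus is agonist 54-4 at its EC80 concentration; % is scaled to controls: 0 for no effect and ±100 for the full control effect; the text of the record puts the active cut at -80%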
# Target sequence (Q9GZU1 whole entry, looked up): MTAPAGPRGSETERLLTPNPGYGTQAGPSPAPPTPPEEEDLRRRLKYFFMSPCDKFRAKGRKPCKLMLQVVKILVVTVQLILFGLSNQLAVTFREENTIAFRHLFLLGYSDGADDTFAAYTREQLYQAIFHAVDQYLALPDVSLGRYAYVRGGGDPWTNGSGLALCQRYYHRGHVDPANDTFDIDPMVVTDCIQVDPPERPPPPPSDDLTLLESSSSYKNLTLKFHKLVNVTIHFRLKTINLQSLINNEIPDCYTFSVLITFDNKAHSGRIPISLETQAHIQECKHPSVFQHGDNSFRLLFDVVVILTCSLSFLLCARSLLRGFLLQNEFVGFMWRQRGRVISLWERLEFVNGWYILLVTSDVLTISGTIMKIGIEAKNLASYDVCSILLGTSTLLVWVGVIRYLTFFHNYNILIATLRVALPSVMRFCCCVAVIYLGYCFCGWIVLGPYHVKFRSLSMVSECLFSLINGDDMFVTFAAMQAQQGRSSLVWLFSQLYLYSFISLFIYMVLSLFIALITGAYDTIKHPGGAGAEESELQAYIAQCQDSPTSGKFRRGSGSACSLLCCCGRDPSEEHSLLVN
#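 TRPML1-DL cells, Tet-induced overnight (~16 h, 37 °C) at 1,500 cells/well, were loaded with Ca8 no-wash dye plus quencher for 45-90 min at room temperature. Compounds were pinned during FDSS kinetic reading; agonist 54-4 at EC80 (4 uM final) then added.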
# Six1-Eya2 inh = inhibitors of human Six1/Eya2 interaction; 360,000 compounds, 0.56% hits; AID 651725; Q15475+O00167; activity change, % (no concentration beside the values); AlphaScreen GST-Six1/His-Eya2 binding, biochemical; hits give low values; control for the full effect not named in the record; in the data active = activity change below about -65%; inconclusive = about -30% to -65%; inactive = above about -30%; also: % is scaled to controls: 0 for no effect and ±100 for the full control effect
#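 AlphaScreen with GST-Six1 and His-Eya2 (5X mix: 250 nM and 500 nM), glutathione donor and nickel acceptor beads; buffer 50 mM Tris pH 8.0, 300 mM NaCl, 1 mM TCEP; 1 h at 37 C in the dark.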
# TRPML1 ag = activates the human TRPML1 channel; 410,000 compounds, 0.12% hits; TRPML1-expressing cells, Ca2+ dye fluorescence, FDSS; host cell line not named in the record; reference of the full effect not given here; Q9GZU1; AID 624414; activation, % (test concentration not listed); in the data active = activation above about 50%; inconclusive = about 30% to 50%; inactive = below about 30%; also: 0% is about no effect; the text of the record puts the active cut at 80%
#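 Tetracycline-induced TRPML1-DL cells are seeded and incubated overnight before loading with a no-wash Ca2+ dye and quencher. Agonist activity is taken from the 110 s fluorescence read following compound pin-transfer on an FDSS, before EC80 54-4 challenge.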
# An asterisk follows results filed as active; ? = inconclusive; . = not tested or not shown.
# The opening 3 compounds as a preview:
SMILES,CtBP-E1A inh,D2 PAM,TRPV1 potentiator,TRPML1 inh,Six1-Eya2 inh,TRPML1 ag
Cc1cc(C(=O)NC2CCCc3c2cnn3-c2ccccc2F)nc(C)n1 (stereo not given),15,6,-3,-2,2,0.7
NS(=O)(=O)c1cccc(NC(=O)CSc2n[nH]c(-c3ccccc3Br)n2)c1,-6,-2,.,32,1,2.2
O=C(CN1CCCCC1)N1c2ccccc2Oc2ccccc21,-3,?,3,-29,-2,-1.2

# The listing, from the start:
SMILES,CtBP-E1A inh,D2 PAM,TRPV1 potentiator,TRPML1 inh,Six1-Eya2 inh,TRPML1 ag
Cc1cc(C(=O)NC2CCCc3c2cnn3-c2ccccc2F)nc(C)n1 (stereo not given),15,6,-3,-2,2,0.7
NS(=O)(=O)c1cccc(NC(=O)CSc2n[nH]c(-c3ccccc3Br)n2)c1,-6,-2,.,32,1,2.2
O=C(CN1CCCCC1)N1c2ccccc2Oc2ccccc21,-3,?,3,-29,-2,-1.2
COc1ccc(C(=O)OCc2ccc(C)cc2)cc1S(=O)(=O)N1CCOCC1,.,8,-5,33,-2,-0.9
COC(=O)c1cc(Cl)nc2ccccc12,0,-6,-7,-8,17,-0.4
Cc1nc2c(-c3ccccc3)c(C)nn2c(SCC(N)=O)c1Cc1ccccc1,.,-14,13,-5,4,-1.0
Cc1cc(C)cc(OCCNC(=O)c2ccc(Br)cc2)c1,-3,-20,-10,-14,7,1.6
CCOP(=O)(c1ccc(N(C)C)cc1)C(O)c1c(Cl)cccc1Cl (stereo not given),-1,-6,-26,-1,2,-0.4
CCOc1ccc(CN2CCC(C(=O)Nc3cccc(-c4ccn[nH]4)c3)CC2)cc1Cl,-30,-48,17,-6,-21,2.0
Cc1ccc2c(c1)-c1c(cnn1CC(=O)N1CCCN(Cc3ccccc3F)C1)CO2,-22,14,-8,7,1,1.6
CN(C)CCNC(=O)c1scc2c1CCCC2,1,-20,-13,32,0,-0.1
N=c1n(Cc2ccc(Cl)cc2)c2ccccc2n1CC(O)COc1ccccc1 (stereo not given),-10,-9,7,9,2,-0.6
CN(Cc1ccccc1)c1ccc([N+](=O)[O-])cc1C(=O)O,1,-10,-2,-27,0,-0.7
O=C(NCc1ccccc1)N(Cc1cc2cc3c(cc2[nH]c1=O)OCCO3)CC1CCCO1 (stereo not given),3,-8,23,35,0,-0.2
CCOC(=O)N1CCN(C(=O)C(NC(=O)c2ccc(CC)cc2)C(C)C)CC1 (stereo not given),-7,-6,-1,-7,-4,0.3
CCN(CC)S(=O)(=O)c1cccc(C(=O)NCc2ccccc2)c1,-9,17,3,4,7,-0.7
CN1CCN(C(=O)C2=C[C@@H](C(C)(C)C)C[C@@H](OCc3ccc(CO)cc3)O2)CC1,35,-7,-15,-1,25,0.2
O=C(O)c1ccc(OCc2cn3ccccc3n2)cc1,-2,-13,-4,-5,2,-0.5
CCCC(=O)Nc1nc2ccc(S(=O)(=O)N3CCCCC3)cc2s1,-2,-2,-3,1,1,3.2
COc1ccc(C2Nc3ccccc3NC3=C2C(=O)CC(C)(C)C3)cc1O (stereo not given),-10,-7,25,-11,8,-0.1
CCOCCCNS(=O)(=O)c1ccc(NC(=O)c2ccc([N+](=O)[O-])cc2Cl)cc1,6,?,3,-4,-7,-0.1
Cc1nn(C)c(C)c1S(=O)(=O)N1CCCC(C(=O)NCC2COc3ccccc3O2)C1 (stereo not given),-16,-2,1,7,1,1.1
O=C(O)c1ccc2[nH]c3c(c2c1)CSCC3,4,-20,-13,15,-3,-0.3
CCOC(=O)c1c(C)[nH]c(C(=O)CN(C)CC(=O)Nc2ccccc2C(F)(F)F)c1C,-2,-4,5,2,-7,-0.5
Cc1c(OC(C)C(=O)NCCCN2CCOCC2)ccc2c3c(c(=O)oc12)CCCC3 (stereo not given),-4,-9,5,-19,-1,0.1
COc1ccccc1C(=O)NNC(=O)c1ccc2ccccc2c1O,-3,-15,.,8,-7,-0.3
CC1CCN(CCOCCOc2ccc(Br)cc2Cl)CC1,1,-38,-1,2,13,1.5
COc1ccc(Cl)cc1N(CC(=O)N1CCN(Cc2ccccc2)CC1)S(C)(=O)=O,-9,-29,1,-2,3,2.2
COc1cc(OC)c(OC)cc1/C=C/c1cc(C(=O)O)c2ccccc2n1,.,-9,-10,-4,0,-0.7
Cc1cccc(NC(=O)c2cc(S(=O)(=O)NCc3ccco3)ccc2F)c1C,1,-3,-6,27,0,1.5
CCc1ccc(C(CNc2nc(C(F)(F)F)nc3ccccc23)N(C)C)cc1 (stereo not given),-2,-13,4,3,-7,1.2
Cc1cccc(Nc2ncnc3onc(-c4ccc(F)cc4)c23)c1C,5,13,-3,2,7,-0.1
CN1C/C(=C\c2ccc(N3CCOCC3)cc2)C(=O)/C(=C/c2ccc(N3CCOCC3)cc2)C1,3,-12,-8,-19,8,14
Cc1cc(NC(=O)CSc2nnc(C3CC3)n2N)c([N+](=O)[O-])cc1C,2,0,1,-20,-3,-0.3
O=C(NCC1CCCO1)C1CCN(S(=O)(=O)c2cccc3cccnc23)CC1 (stereo not given),0,-7,-11,0,3,-0.3
COc1ccc(Cl)cc1C(=O)Nc1cccc(-c2ccc3nncn3n2)c1,-9,1,4,.,-10,.
O=C(Nc1ccc(S(=O)(=O)Nc2ccccc2F)cc1)N1CCCCC1,-2,4,-6,12,-10,0.0
CC(=O)c1cc2c(O)c(O)ccc2o1,-5,13,-6,6,0,-0.4
C[C@H](O)[C@@H]1CN2CCc3c([nH]c4ccccc34)[C@@H]2C[C@@H]1N(C)C(=S)Nc1ccc(C#N)cc1,-1,-7,.,.,-1,1.2
COc1c2ccoc2c(OCC=C(C)C)c2oc(=O)ccc12,-3,2,-13,2,-4,-0.3
Cc1ccc(-c2nnc(N(C)C(=O)c3ccncc3)s2)cn1,8,-9,-25,12,4,1.0
O=C1OCc2ccc(NC(=O)c3c(F)cccc3Cl)cc21,0,-11,3,-6,1,1.9
Cc1nnc(NC(=O)CSc2ccc([N+](=O)[O-])cn2)s1,6,-10,6,-6,0,0.0
O=c1c2ccccc2nc(-c2ccccc2)n1/N=C/c1ccc([N+](=O)[O-])cc1,4,-9,-19,23,-6,-0.2
O=S1(=O)C=CC(N2CCOCC2)C1 (stereo not given),-2,-5,7,-14,-1,-0.5
Cn1cccc1CNCC(O)c1ccccc1 (stereo not given),-8,-3,-10,6,-2,1.0
FC(F)(F)c1cc(-c2cccs2)n[nH]1,10,-3,10,10,0,2.1
COC(CNC(=O)c1cc(-c2ccncc2)nc2ccc(S(=O)(=O)N3CCOCC3)cc12)OC,.,-9,-2,4,-1,-0.2
Clc1ccccc1NN(Cc1ccncc1)c1ccccc1Cl,-20,-13,.,60,-17,1.7
COc1ccccc1Cc1c(-c2ccccc2)nc2ccc(Cl)cn12,-13,-3,.,-9,13,1.0
COC(=O)c1ccc2c(c1)NC(=O)C(N1CCOCC1)S2 (stereo not given),1,2,?,18,2,1.0
Nc1nnc(SCc2ccc([N+](=O)[O-])cc2)s1,6,5,-8,13,2,-1.1
CCOC(=O)Nc1cc(C(=O)OC)ccc1C,5,5,5,-8,3,-0.3
CC1CCCCC1N=CC1=C(O)CC(C)(C)CC1=O (stereo not given),9,-13,2,-5,5,0.0
CC1CC(CC(=O)NNc2nc(-c3ccccc3)cs2)C(=O)O1 (stereo not given),8,0,2,-15,-1,-0.1
C=CCn1cnc2c(nnn2-c2cc(C)cc(C)c2)c1=O,-3,-1,-12,0,7,-0.5
COc1ccc(CC(NC(C)=O)C(=O)NC2CCN(C(=O)Nc3ccc(C#N)cc3)CC2)cc1OC (stereo not given),6,0,-3,9,-2,1.1
CC(=O)Nc1cccc(/C(C)=N/NS(=O)(=O)c2ccc(C)cc2)c1,.,-7,12,-2,6,0.0
Cc1ccc(NC(=O)CNC(=O)Cc2cccc3ccccc23)c(O)c1,6,-2,23,-3,-6,0.2
Cc1cccc(N(CC(=O)NC(C)(C)C)C(=O)CCC(=O)Nc2nccs2)c1,-7,-2,-1,-12,5,0.3

# (more compounds)
SMILES,CtBP-E1A inh,D2 PAM,TRPV1 potentiator,TRPML1 inh,Six1-Eya2 inh,TRPML1 ag
CC(NC(=O)c1ccncc1)c1ccccc1 (stereo not given),-2,-4,-11,2,17,0.3
CCN(CC)CCN1C(=O)C(O)=C(C(=O)c2ccc(C)o2)C1c1ccccn1 (stereo not given),-1,18,.,-8,2,-0.4
O=C(NCCC1CCCCN1S(=O)(=O)c1ccc(Cl)cc1)C(=O)NCc1cccnc1 (stereo not given),2,-1,26,-3,6,0.6
Cn1c(=O)[nH]c(=O)c2c1nc(N1CCCCCC1)n2CCSc1nc2ccccc2o1,0,-5,6,3,1,-0.4
Cc1ccc(C(O)c2ncc(-c3ccccc3Cl)[nH]2)c(C)c1 (stereo not given),-11,-8,.,.,-16,-1.1
O=C(CN1CCN(C2CCCCC2)CC1)Nc1cccc2ccccc12,3,-13,6,1,4,0.0
CCOC(=O)c1sc(NC(=O)CN2C(=O)NC3(CC(C)CC(C)(C)C3)C2=O)c(C(=O)OCC)c1C (stereo not given),3,-8,9,-3,7,1.0
O=C(COc1ccc([N+](=O)[O-])cc1)Nc1ccc2c(c1)OCO2,0,-17,-7,2,0,-0.1
Cc1sc2ncnc(N3CCC(C(=O)NNC(=O)COc4ccccc4Cl)CC3)c2c1C,-7,?,21,0,?,0.9
C=CCn1c(SCc2nc3sc(C(=O)O)c(C)c3c(=O)[nH]2)nnc1-c1ccccc1,-24,-7,-15,19,0,2.1
OCCN(CC#CCn1c2ccccc2c2ccccc21)CCO,.,-16,-2,11,-3,-0.7
CN(CC(=O)Nc1ccc(F)cc1)C(=O)CSc1ccc2c(c1)OCCO2,1,-2,3,-5,3,0.3
COc1cc(C2CC(=O)Nc3n[nH]c(-c4ccccc4)c32)cc(OC)c1OC (stereo not given),7,2,0,-3,4,0.2
O=C(CSc1nnc(-c2ccc(F)cc2)c2ccccc12)Nc1c(F)cccc1F,.,-1,-2,23,5,3.5
Cc1ccc2cc(CCNC(=O)CCCc3ccccc3)c(=O)[nH]c2c1,.,-7,14,3,4,-0.8

# One compound at a time, as listed above.
# O=C(O)c1ccc(OCc2cn3ccccc3n2)cc1 in the list: CtBP-E1A inh = -2; D2 PAM = -13; TRPV1 potentiator = -4; TRPML1 inh = -5; Six1-Eya2 inh = 2; TRPML1 ag = -0.5
# O=C(O)c1ccc2[nH]c3c(c2c1)CSCC3 in the list: CtBP-E1A inh = 4; D2 PAM = -20; TRPV1 potentiator = -13; TRPML1 inh = 15; Six1-Eya2 inh = -3; TRPML1 ag = -0.3
# C=CCn1cnc2c(nnn2-c2cc(C)cc(C)c2)c1=O in the list: CtBP-E1A inh = -3; D2 PAM = -1; TRPV1 potentiator = -12; TRPML1 inh = 0; Six1-Eya2 inh = 7; TRPML1 ag = -0.5

# Going on with the list:
SMILES,CtBP-E1A inh,D2 PAM,TRPV1 potentiator,TRPML1 inh,Six1-Eya2 inh,TRPML1 ag
O=C(NC1CCCCC1)N1CCN(c2nc(-c3ccccc3)cs2)CC1,-2,-2,-10,-8,-22,-0.3
CCc1nnc(NC(=O)C23CC4CC(CC(C4)C2)C3)s1,-24,-12,-26,.,0,.
CC(C)c1nnc(NC(=O)CCC(=O)NCCc2ccccc2)s1,8,11,18,14,-3,0.7
CCc1nc2c(OCc3ccc(Cl)cc3Cl)cccn2c1N(C)C(=O)C1CC1,-5,-6,.,.,-12,9.5
